Bioassay records as filed in PubChem.
KCNQ2 inh: KCNQ2 potassium channel inhibitors, primary screen, cell-based, CHO-K1, FluxOR thallium flux, B-score (AID 2156). 20 min; stronger effect = lower value; only compounds with negative scores are shown here; some inactives read as strong as hits. B-score at 10 µM. 1.1% of 310,000 active;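 active = fluorescence ratio B-score at most minus 3 library SDs, with starting brightness B-score within 2 library SDs, cut at about -5.5 in these data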
Target sequence (O88943 whole entry, looked up): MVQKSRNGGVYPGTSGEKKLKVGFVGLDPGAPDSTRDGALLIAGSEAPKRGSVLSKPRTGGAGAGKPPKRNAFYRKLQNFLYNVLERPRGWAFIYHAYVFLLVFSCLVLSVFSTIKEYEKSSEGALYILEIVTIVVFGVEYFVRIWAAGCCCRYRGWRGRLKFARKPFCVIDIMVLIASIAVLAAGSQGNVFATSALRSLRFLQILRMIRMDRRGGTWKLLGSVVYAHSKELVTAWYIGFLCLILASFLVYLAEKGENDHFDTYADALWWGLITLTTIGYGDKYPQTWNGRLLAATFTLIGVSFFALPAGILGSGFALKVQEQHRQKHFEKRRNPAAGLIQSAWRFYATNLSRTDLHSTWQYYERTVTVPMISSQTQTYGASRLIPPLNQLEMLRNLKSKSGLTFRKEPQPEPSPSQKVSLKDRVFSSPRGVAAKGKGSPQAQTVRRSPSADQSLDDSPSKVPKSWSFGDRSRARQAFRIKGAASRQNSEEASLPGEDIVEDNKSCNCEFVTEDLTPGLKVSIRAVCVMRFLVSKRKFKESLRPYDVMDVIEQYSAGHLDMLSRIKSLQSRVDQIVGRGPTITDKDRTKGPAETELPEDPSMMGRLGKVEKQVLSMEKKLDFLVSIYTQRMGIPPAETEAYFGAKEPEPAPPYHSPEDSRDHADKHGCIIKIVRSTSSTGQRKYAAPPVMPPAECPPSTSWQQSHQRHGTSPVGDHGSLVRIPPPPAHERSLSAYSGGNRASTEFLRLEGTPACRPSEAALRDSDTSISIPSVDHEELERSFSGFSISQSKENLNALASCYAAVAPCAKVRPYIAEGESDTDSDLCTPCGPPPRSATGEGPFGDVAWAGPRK
KCNQ2 inh baseline: further read-out of KCNQ2 inh, marked with its call; B-score; measured here: initial fluorescence intensity artifact check;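 brightness before thallium and not channel activity; 0 = typical well and far values either way flag optical interference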
* hit, by the source's call. Only part of the results is shown, so the mix of outcomes need not match the whole.

Results for CCc1ccc(NC(=O)Nc2cnccn2)cc1 ?
KCNQ2 inh: inactive; KCNQ2 inh baseline: -0.11

Results for CCOC(=O)C(C)n1cnc2scc(-c3ccc(C)cc3)c2c1=O (stereo not given) ?
KCNQ2 inh: inactive; KCNQ2 inh baseline: 0.82

How did OCCOCCNc1ncnc2c1c(-c1ccccc1)cn2-c1ccccc1 do in these assays?
KCNQ2 inh: inactive; KCNQ2 inh baseline: 0.61

How did COC(=O)CSc1nc2sc3c(c2c(=O)n1-c1ccccc1)CCN(C)C3 do in these assays?
KCNQ2 inh: inactive; KCNQ2 inh baseline: -0.58

What do the screens show for `CCC(C(=O)O)n1c2ccccc2c2cn[nH]c(=O)c21` (stereo not given)?
KCNQ2 inh: inactive; KCNQ2 inh baseline: -0.03

How did NCCC(=O)N1c2ccccc2Sc2ccc(Cl)cc21 do in these assays?
KCNQ2 inh: inactive; KCNQ2 inh baseline: -0.93

What do the screens show for `COn1c(=O)c(-c2cccs2)[n+]([O-])c2ccccc21`?
KCNQ2 inh: inactive; KCNQ2 inh baseline: 8.57

What do the screens show for `CC(C)CCn1c(SCc2ccc(Cl)cc2)nc2c1c(=O)[nH]c(=O)n2C`?
KCNQ2 inh: inactive; KCNQ2 inh baseline: 1.22

Results for CCOC1(c2ccccc2)OC(=O)c2ccccc21 (stereo not given) ?
KCNQ2 inh: inactive; KCNQ2 inh baseline: -1.46

How did Brc1ccc(CNCc2cccs2)cc1 do in these assays?
KCNQ2 inh: inactive; KCNQ2 inh baseline: 0.66

What do the screens show for `O=C(O)c1ccc(N/N=C/C=C/c2ccc([N+](=O)[O-])o2)cc1`?
KCNQ2 inh: inactive; KCNQ2 inh baseline: -0.32

What do the screens show for `NC(=S)N/N=C/c1coc2ccc(F)cc2c1=O`?
KCNQ2 inh: inactive; KCNQ2 inh baseline: 0.09

Results for CC(C)C[C@H](NC(=O)NCc1ccc(F)cc1)C(=O)O ?
KCNQ2 inh: inactive; KCNQ2 inh baseline: 3.54

What do the screens show for `Cc1nn(-c2ccccc2)c(N2CCCC2)c1/C=N/NC(=O)c1cc2ccccc2cc1O`?
KCNQ2 inh: inactive; KCNQ2 inh baseline: 1.1

How did O=C(Nc1cc(Cl)cc(Cl)c1)c1coc(=O)c(Br)c1 do in these assays?
KCNQ2 inh: inactive; KCNQ2 inh baseline: 2.96

How did COc1cccc(C(=O)Nc2ccc(F)cc2F)c1 do in these assays?
KCNQ2 inh: inactive; KCNQ2 inh baseline: 0.5

What do the screens show for `Cc1cccc(NC(=S)NNc2cccc(Cl)c2)c1`?
KCNQ2 inh: inactive; KCNQ2 inh baseline: 1.07

Results for CCc1ccc(-n2c(SCC(=O)Nc3ccc(C(=O)O)cc3)nnc2-c2ccncc2)cc1 ?
KCNQ2 inh: inactive; KCNQ2 inh baseline: -1.06

How did CCOC(=O)N1CCN(C(=O)c2ccccc2NC(C)=O)CC1 do in these assays?
KCNQ2 inh: inactive; KCNQ2 inh baseline: 1.19

How did CCCN(CCC)S(=O)(=O)c1ccc(C(=O)Nc2nc(-c3ccccc3)c(C(=O)OCC)s2)cc1 do in these assays?
KCNQ2 inh: inactive; KCNQ2 inh baseline: 0.02

What do the screens show for `CCCN1C(=O)/C(=C/c2ccc(N3CCCC3)c(C)c2)NC1=S`?
KCNQ2 inh: inactive; KCNQ2 inh baseline: 2.83

How did Cc1ccc(CNC(=O)c2ccccc2NC(=O)C2=CSCCO2)cc1 do in these assays?
KCNQ2 inh: inactive; KCNQ2 inh baseline: 0.16

What do the screens show for `Cc1cccc(C)c1NC(=O)c1cc(-c2ccccn2)nc2ccccc12`?
KCNQ2 inh: inactive; KCNQ2 inh baseline: 0.03

Results for COc1cc(C(=S)N2CCOCC2)cc(OC)c1OC ?
KCNQ2 inh: inactive; KCNQ2 inh baseline: 0.23

Results for CCCNc1nc2ccccc2c(=O)[nH]1 ?
KCNQ2 inh: inactive; KCNQ2 inh baseline: 0.47

Results for Cc1ccc(C)c(-n2c(-c3ccco3)n[nH]c2=S)c1 ?
KCNQ2 inh: inactive; KCNQ2 inh baseline: 0.53

Results for Nc1ccc2nc3c(=O)n(CCc4ccccc4)c(=O)[nH]c3nc2c1 ?
KCNQ2 inh: inactive; KCNQ2 inh baseline: 25.8

What do the screens show for `COc1cccc(-c2nc(CS(=O)(=O)CC(=O)NCCCN3C(C)CCCC3C)c(C)o2)c1` (stereo not given)?
KCNQ2 inh: inactive; KCNQ2 inh baseline: 0.02

What do the screens show for `O=C(COc1ccc(Br)cc1CO)Nc1ccccc1F`?
KCNQ2 inh: inactive; KCNQ2 inh baseline: 0.01

What do the screens show for `CCCCNC(=O)c1c(CSc2ccc(Cl)cc2)noc1C(=O)NCc1ccccc1`?
KCNQ2 inh: inactive; KCNQ2 inh baseline: 1.14

How did CCCC(=NC(C)CC)C1=C(O)CC(c2ccccc2)CC1=O (stereo not given) do in these assays?
KCNQ2 inh: inactive; KCNQ2 inh baseline: -1.05

What do the screens show for `S=C(Nc1ccccc1)Nc1ccc2cn[nH]c2c1`?
KCNQ2 inh: inactive; KCNQ2 inh baseline: 1.61

How did Cc1[nH]c2ccc(F)cc2c1CCN(Cc1cccnc1)C(=S)Nc1cccc(F)c1 do in these assays?
KCNQ2 inh: inactive; KCNQ2 inh baseline: -1.07

Results for O=C(COc1ccccc1[N+](=O)[O-])Nc1ccc2c(c1)OCO2 ?
KCNQ2 inh: inactive; KCNQ2 inh baseline: -1.66

How did C=CCn1nc2ccccc2c1OCCO do in these assays?
KCNQ2 inh: inactive; KCNQ2 inh baseline: 0.17

What do the screens show for `CO/C=C\C=C/c1nnn(-c2ccc(Cl)cc2)n1`?
KCNQ2 inh: -6.86*; KCNQ2 inh baseline: 1.8*

What do the screens show for `O=S(=O)(c1ccc(Br)cc1)c1cnc2ccccc2n1`?
KCNQ2 inh: inactive; KCNQ2 inh baseline: -0.12

How did CCC(O)CNc1nc(SC)nc2sc3c(c12)CCN(C)C3 (stereo not given) do in these assays?
KCNQ2 inh: inactive; KCNQ2 inh baseline: 2.6

Results for CN(C(=O)COC(=O)c1cccc(NS(=O)(=O)c2ccc(F)c(F)c2)c1)C1CCS(=O)(=O)C1 (stereo not given) ?
KCNQ2 inh: inactive; KCNQ2 inh baseline: 0.17

Results for NC(=O)c1ccccc1NC(=O)N1CCOCC1 ?
KCNQ2 inh: inactive; KCNQ2 inh baseline: -1.27

Taken from the entries so far for reference:
How did CCC(O)CNc1nc(SC)nc2sc3c(c12)CCN(C)C3 (stereo not given) do in these assays?
KCNQ2 inh: inactive; KCNQ2 inh baseline: 2.6

Results for CN(C(=O)COC(=O)c1cccc(NS(=O)(=O)c2ccc(F)c(F)c2)c1)C1CCS(=O)(=O)C1 (stereo not given) ?
KCNQ2 inh: inactive; KCNQ2 inh baseline: 0.17

Results for NC(=O)c1ccccc1NC(=O)N1CCOCC1 ?
KCNQ2 inh: inactive; KCNQ2 inh baseline: -1.27

Additional compounds:
What do the screens show for `COc1ccc(Cl)cc1N1C(=O)/C(=C\c2sccc2C)N=C1SCC(=O)NC1CC1`?
KCNQ2 inh: inactive; KCNQ2 inh baseline: -0.25

What do the screens show for `Cc1nnc(SCC(=O)N2CC(=O)Nc3ccccc32)n1-c1ccccc1`?
KCNQ2 inh: inactive; KCNQ2 inh baseline: 0.11

How did COC(=O)c1cccc(CSC(=S)N2CCCC2)c1 do in these assays?
KCNQ2 inh: inactive; KCNQ2 inh baseline: 2.49

Results for CC1CCN(C(=O)c2ccc3c(=O)n4c(nc3c2)CCCCC4)CC1 ?
KCNQ2 inh: inactive; KCNQ2 inh baseline: -0.85

What do the screens show for `COC(=O)c1cn(NC(=O)c2cccc(N(C)C)c2)c(=O)c2ccccc12`?
KCNQ2 inh: -7.83*; KCNQ2 inh baseline: 0.14*

How did Cc1csc(Nc2ccc(Cl)cc2)[n+]1-c1ccc(Cl)cc1 do in these assays?
KCNQ2 inh: inactive; KCNQ2 inh baseline: 0.68

Results for O=c1cc(-c2ccccc2Cl)oc2ccc([N+](=O)[O-])c(O)c12 ?
KCNQ2 inh: inactive; KCNQ2 inh baseline: -0.93

How did Oc1cccc(C2c3[nH]c4ccccc4c3CCN2Cc2ccoc2)c1 (stereo not given) do in these assays?
KCNQ2 inh: inactive; KCNQ2 inh baseline: 0.84

How did CN(C)CC(C(=O)c1ccccc1)c1ccccc1 (stereo not given) do in these assays?
KCNQ2 inh: inactive; KCNQ2 inh baseline: 1.21

How did Nc1cccc(-c2cc(-c3ccccc3)nc(-c3cccc(N)c3)n2)c1 do in these assays?
KCNQ2 inh: inactive; KCNQ2 inh baseline: 0.41

What do the screens show for `CCNC(=S)NNC(=O)c1cc(-c2ccccc2C)nc2ccccc12`?
KCNQ2 inh: inactive; KCNQ2 inh baseline: 0.02

What do the screens show for `Nc1ccc2nc(-c3cc(Cl)c(N)c(Cl)c3)[nH]c2c1`?
KCNQ2 inh: inactive; KCNQ2 inh baseline: -0.27

How did CCc1cccc(CC)c1C(OC(C)=O)c1cccnc1 (stereo not given) do in these assays?
KCNQ2 inh: inactive; KCNQ2 inh baseline: 0.47

What do the screens show for `COc1ccc(Cl)cc1NC(=S)N1CCN(C(=O)C2CCCO2)CC1` (stereo not given)?
KCNQ2 inh: inactive; KCNQ2 inh baseline: -0.83

Results for CC1C/C(=C/c2ccco2)C(=O)/C(=C/c2ccco2)C1 (stereo not given) ?
KCNQ2 inh: inactive; KCNQ2 inh baseline: -2.15

Results for Nc1[nH]nc2nc(N3CCOCC3)nc(-c3ccccc3)c12 ?
KCNQ2 inh: inactive; KCNQ2 inh baseline: -2.88

What do the screens show for `CC(C)(C)C(=O)NC(=S)Nc1ccc(C(F)(F)F)cc1`?
KCNQ2 inh: inactive; KCNQ2 inh baseline: -0.51

What do the screens show for `Cc1ccc(-c2nc(Nc3cccc(C)c3)sc2CC(=O)O)cc1`?
KCNQ2 inh: inactive; KCNQ2 inh baseline: -1.09

Results for COc1cc(C2C(C#N)=C(N)Oc3c2oc(CO)cc3=O)cc(OC)c1OC (stereo not given) ?
KCNQ2 inh: inactive; KCNQ2 inh baseline: -0.14

Results for Cc1cccc(NC(=O)/C(C#N)=C/c2ccccc2Cl)n1 ?
KCNQ2 inh: inactive; KCNQ2 inh baseline: 1.3

How did Cc1ccc(C(=O)Nc2ccc(C(=O)N/N=C/c3c[nH]c4ccccc34)cc2)cc1 do in these assays?
KCNQ2 inh: inactive; KCNQ2 inh baseline: 1.25

Results for O=S(=O)(Cc1ccccc1Cl)NCCOc1ccccc1 ?
KCNQ2 inh: inactive; KCNQ2 inh baseline: 0.58

Results for COc1ccccc1C(=O)Nc1ccccc1C(=O)N1C(C)CCCC1C (stereo not given) ?
KCNQ2 inh: inactive; KCNQ2 inh baseline: 0.55

How did CCc1cc(=O)oc2cc3occ(-c4ccc(OC)c(F)c4)c3cc12 do in these assays?
KCNQ2 inh: inactive; KCNQ2 inh baseline: -0.29

What do the screens show for `COc1ccccc1NCC(=O)N/N=C/c1c(O)ccc2ccccc12`?
KCNQ2 inh: inactive; KCNQ2 inh baseline: 0.89

Results for CC(=O)c1cc(-c2ccccc2)n(CCC(=O)NC2CCCC2)c1C ?
KCNQ2 inh: inactive; KCNQ2 inh baseline: 0.45

What do the screens show for `O=C(c1ccco1)N1CCN(C(=O)c2cc(-c3ccccc3)nc3ccccc23)CC1`?
KCNQ2 inh: inactive; KCNQ2 inh baseline: 0.22

How did CCOC(=O)N1CCN(c2c(N3CCN(c4ccccc4OC)CC3)c(=O)c2=O)CC1 do in these assays?
KCNQ2 inh: inactive; KCNQ2 inh baseline: 0.48

Results for O=C1C2C3C=CC(C3)C2C(=O)N1/N=C/c1cc(Br)cc([N+](=O)[O-])c1O (stereo not given) ?
KCNQ2 inh: inactive; KCNQ2 inh baseline: -0.51

Results for CC(C)CC(C(=O)Nc1ccc2c(c1)OCCO2)N1C(=O)c2ccccc2C1=O (stereo not given) ?
KCNQ2 inh: inactive; KCNQ2 inh baseline: -0.69

Looked up one by one from the list above, four records:
Results for COc1ccccc1C(=O)Nc1ccccc1C(=O)N1C(C)CCCC1C (stereo not given) ?
KCNQ2 inh: inactive; KCNQ2 inh baseline: 0.55

Results for O=S(=O)(Cc1ccccc1Cl)NCCOc1ccccc1 ?
KCNQ2 inh: inactive; KCNQ2 inh baseline: 0.58

How did CCc1cc(=O)oc2cc3occ(-c4ccc(OC)c(F)c4)c3cc12 do in these assays?
KCNQ2 inh: inactive; KCNQ2 inh baseline: -0.29

Results for CC(C)CC(C(=O)Nc1ccc2c(c1)OCCO2)N1C(=O)c2ccccc2C1=O (stereo not given) ?
KCNQ2 inh: inactive; KCNQ2 inh baseline: -0.69

Following part:
How did CCn1cc(S(=O)(=O)N2CCN(Cc3ccc(F)cc3)CC2)cn1 do in these assays?
KCNQ2 inh: inactive; KCNQ2 inh baseline: -0.69

Results for COC(=O)c1ccc(-c2noc(CN3C[C@H]4CC[C@H]3C4)n2)cc1 ?
KCNQ2 inh: inactive; KCNQ2 inh baseline: 0.53

How did CCOc1ccc(OCCN2C(=O)NC3(CCCc4ccccc43)C2=O)cc1 (stereo not given) do in these assays?
KCNQ2 inh: inactive; KCNQ2 inh baseline: -0.43

Results for COc1ccc(NC(=O)CN2CCN(Cc3ccccc3)CC2)cc1 ?
KCNQ2 inh: inactive; KCNQ2 inh baseline: -0.18

What do the screens show for `COc1cccc(C(C[N+](=O)[O-])c2c(C)[nH]n(-c3ccccc3)c2=O)c1` (stereo not given)?
KCNQ2 inh: -11.6*; KCNQ2 inh baseline: 1.02*

How did CCCNC(=O)N1CCC(n2nccc2NC(=O)CCOc2ccccc2)CC1 do in these assays?
KCNQ2 inh: inactive; KCNQ2 inh baseline: 1.95
